Cruzain inh noDet – cruzain (T. cruzi) inhibition without detergent. P25779. purified cruzain, Z-FR-AMC fluorescence, no detergent. Potency, µM, without a hit: max response, negative = inhibition, actives largely listed as inhibitors. actives 2.3% (n = 200,000). AID 1476;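 also: plate controls were enzyme without inhibitor for no effect and buffer without enzyme for full effect; nearly all actives have a fitted effect of over 40% in size; top concentration of the series not given in the record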
Target sequence (P25779 123-467 limits assumed): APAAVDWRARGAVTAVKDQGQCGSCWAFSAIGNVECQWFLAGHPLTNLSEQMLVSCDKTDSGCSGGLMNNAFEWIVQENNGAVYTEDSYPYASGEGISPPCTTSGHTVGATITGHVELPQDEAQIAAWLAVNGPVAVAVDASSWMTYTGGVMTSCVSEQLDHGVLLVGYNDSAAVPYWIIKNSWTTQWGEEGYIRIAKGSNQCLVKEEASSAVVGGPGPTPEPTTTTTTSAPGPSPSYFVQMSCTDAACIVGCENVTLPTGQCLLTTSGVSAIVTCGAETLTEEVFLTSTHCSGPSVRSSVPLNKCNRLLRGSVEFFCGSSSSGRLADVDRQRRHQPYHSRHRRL
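Purified cruzain at 1.5 nM, pre-incubated 15 min with compound at room temperature in 100 mM sodium acetate pH 5.5, 5 mM DTT, 0.00005% Triton X-100. Reaction started with 2 uM Z-FR-AMC; AMC fluorescence increase over 60 s gives rate.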
MARV entry inh – inhibitors of Marburg virus binding or cell entry; actives 1.8% (n = 300,000); Marburg virus pseudotyped entry inhibition, cell reporter; control for the full effect not named in the record; about a third of the inactives were read at about 46 µM; Potency, µM (series often up to 37.8 µM), for inactives: at the top dose activity change, negative = inhibition, most hits filed as inhibitors; active = well fitted inhibition curve with a large enough effect; inconclusive = small, poorly fitted or top-dose-only effect, or effect the other way; inactive = flat fitted curve, though single readings scatter; tested in HEK293 cells; about a fifth of its hits are not listed in these tables; also: % is scaled to controls: 0 for no effect and ±100 for the full control effect; luciferase read-out
NS1 function inh – blocks influenza NS1 protein function; S. cerevisiae slowed by influenza A NS1, growth recovery by OD600; Potency, µM (highest dose often 46.1 µM), for the others: at the top dose activity, positive = more growth; actives 0.4% (n = 270,000); active means well fitted rising curve with a large enough effect; inconclusive means small, poorly fitted or top-dose-only effect; inactive means no such curve, though single readings can be large or run the other way; also: nearly all actives have a fitted effect of over 50% in size
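A cell-based growth assay was used: compounds that relieve NS1-induced slow growth of budding yeast raise OD600. Assay medium was yeast nitrogen base with ammonium sulphate and -URA supplement, pH 6.0, with 2% galactose.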
2A StopGo – FMDV 2A StopGo reporter, luciferase signal; Potency, µM (highest dose often 57.9 µM), inactives show at the top dose signal change, negative = less light; human cells with a luciferase reporter of 2A StopGo recoding; control for the full effect not named in the record; actives 1.2% (n = 410,000); AID 1159524; active = well fitted falling curve with a large enough effect; inconclusive = small, poorly fitted or top-dose-only effect; inactive = no such curve, though single readings can be large or run the other way; tested in HEK293T cells; also: % is scaled to controls: 0 for no effect and ±100 for the full control effect; nearly all actives have a fitted effect of over 45% in size; luciferase light after 4 h
RE007 growth inh – less growth of the S. pombe RE007 Vpr strain; S. pombe RE007 Vpr strain, BacTiter-Glo ATP luminescence, 24 h; control for the full effect not named in the record; Potency, µM (series often up to 92.2 µM), without a hit: top-dose activity change, negative = less growth; actives 0.21% (n = 360,000); AID 651644; active = well fitted falling curve with a large enough effect; inconclusive = small, poorly fitted or top-dose-only effect; inactive = no such curve, though single readings can be large or run the other way;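 also: % is scaled to controls: 0 for no effect and ±100 for the full control effect; nearly all actives have a fitted effect of over 50% in size; the assay follows cell death caused by Vpr and the record does not say whether a fall means rescue or toxicity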
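Fission yeast strain RE007, carrying one chromosomally integrated HIV-1 vpr copy, was seeded at OD 0.01 in PMG+AL medium with 23 nL pinned compound. After 24 h at 30 °C and 99% humidity, viability was read by BacTiter-Glo luminescence.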
Cruzain inh Det – inhibitors of Trypanosoma cruzi cruzain with detergent; P25779; purified cruzain, Z-FR-AMC fluorescence, 0.01% Triton; Potency, µM, for inactives: max response, negative = inhibition, actives largely listed as inhibitors; actives 0.43% (n = 200,000); AID 1478;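 also: plate controls were neutral wells for no effect and buffer without enzyme for full effect; nearly all actives have a fitted effect of over 40% in size; top concentration of the series not given in the record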
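Cruzain (1.5 nM) preincubated 15 min at RT with compound in 100 mM sodium acetate pH 5.5, 5 mM DTT, 0.01% Triton X-100. Reaction started with 2 uM Z-FR-AMC; AMC fluorescence (ex 360/em 450 nm) change over 60 s gave rate.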
Lassa entry inh – Lassa virus entry inhibition | Lassa virus pseudotype entry inhibition, cell reporter; control for the full effect not named in the record | Potency, µM (doses to about 37.9 µM), inactives show at the highest dose activity change, negative = inhibition, usual class: inhibitors | actives 1.2% (n = 300,000); active means well fitted inhibition curve with a large enough effect; inconclusive means small, poorly fitted or top-dose-only effect, or effect the other way; inactive means flat fitted curve, though single readings scatter; tested in HEK293 cells; also: % is scaled to controls: 0 for no effect and ±100 for the full control effect; nearly all actives have a fitted effect of over 50% in size; luciferase read-out
SARS PLpro yeast – blocks SARS-CoV papain-like protease in a yeast assay. actives 0.19% (n = 330,000). AID 485353. Potency, µM (titrated, usually from 32.9 µM), for inactives: at the top dose activity, positive = growth rescue. S. cerevisiae expressing SARS-CoV PLpro, growth rescue; control for the full effect not named in the record; active means well fitted rising curve with a large enough effect; inconclusive means small, poorly fitted or top-dose-only effect; inactive means no such curve, though single readings can be large or run the other way; also: 0% is about no effect; nearly all actives have a fitted effect of over 55% in size; growth read by luminescence after 48 h
Numbers without * were called inactive; u = inconclusive; x = not tested or not shown; [ ] = remark or other dose. Unless noted, calls follow the shape of the dose curve; as a rule, active = well fitted curve in the direction sought with a large enough effect; inconclusive = small, poorly fitted or top-dose-only effect, or another doubt; inactive = no such curve, though single readings can be large; an effect the other way counts as inactive or inconclusive. Potency is read from the fitted curve at half-maximal effect.

1) COc1ccc(OC)c(-c2cc(C(=O)NCCN3CCOCC3)no2)c1
2) CCOCCCN1C(=O)C2C(C(=O)Nc3ccc(OCC)cc3)C3C=CC2(O3)C1C(=O)NC1CCCCC1 (stereo not drawn)
3) COc1ccc(OC)c(/C=C/C(=O)OCC(=O)Nc2ccc3c(c2)OCCO3)c1
4) CC(=O)N1CCc2cc(S(=O)(=O)NC(Cc3ccccc3)C(=O)Nc3ccc(C)cc3C)ccc21 (stereo not drawn)
5) COc1nc(N)nc(NC23CC4CC(CC(C4)C2)C3)n1
6) COc1ccc(OC)c(-n2c(-c3cc(-c4ccc(F)cc4)n[nH]3)n[nH]c2=S)c1
7) CC(=O)c1cc(C)c(OC(=O)c2ccccc2)c(C)c1
8) Cc1cc(C)cc(-n2nnc(C(=O)NCc3ccccc3Cl)c2N)c1
entry no.,1,2,3,4,5,6,7,8
Cruzain inh noDet,10%,x,-21%,2%,-1%,3%,x,9%
MARV entry inh,4%,0%[46.1 µM],-17%,-25%[46.1 µM],-4%,5%,-8%,-1%
NS1 function inh,-6%,5%,-4%,x,-41%,12%,x,2%
2A StopGo,-7%,-1%,-19%,9%,x,-11%,u,-17%
RE007 growth inh,-20%,-15%,3%,x,-5%,-14%,2%,0%
Cruzain inh Det,-2.3%,x,-10%,-3.8%,0.3%,-4.8%,x,-2.2%
Lassa entry inh,-15%,-6%,u,-16%[46.1 µM],u,16%,u,4%
SARS PLpro yeast,6%,4%,-11%,x,-2%,18%,x,-2%

From compound 7 up to 8, copied from above:
7) CC(=O)c1cc(C)c(OC(=O)c2ccccc2)c(C)c1
8) Cc1cc(C)cc(-n2nnc(C(=O)NCc3ccccc3Cl)c2N)c1
entry no.,7,8
Cruzain inh noDet,x,9%
MARV entry inh,-8%,-1%
NS1 function inh,x,2%
2A StopGo,u,-17%
RE007 growth inh,2%,0%
Cruzain inh Det,x,-2.2%
Lassa entry inh,u,4%
SARS PLpro yeast,x,-2%

Other compounds follow:
9) CCOc1cc(/C=N/NC(=O)C(OC)c2ccccc2)ccc1O (stereo not drawn)
10) CCN(CC(=O)NC(C)(C)C)Cc1nc2c(Br)cc(Br)cc2c(=O)[nH]1
11) O=C(CCC(=O)c1ccccc1)NCCc1c[nH]c2ccccc12
12) O=C(c1c[nH]c2ccc(S(=O)(=O)N3CCC4(CC3)OCCO4)cc2c1=O)N1CCOCC1
13) Cc1ccc(Cn2cccc2/C=N/NC(=S)Nc2ccc(C)cc2)cc1
14) COc1ccc(OCCNS(=O)(=O)Cc2ccccc2)cc1
15) Cc1ccc(C)c(C(=O)Nc2c(C(N)=O)oc3ccccc23)c1
16) CC(C)CCC(CCN1CCOCC1)c1ccc2c(c1)OCO2 (stereo not drawn)
entry no.,9,10,11,12,13,14,15,16
Cruzain inh noDet,x,x,-10%,-3%,x,-8%,-6%,5%
MARV entry inh,x,u,-1%,26%,-23%[46.1 µM],-16%,x,12µM*
NS1 function inh,-18%,-2%,-8%,-8%,-22%,-8%,2%,-6%
2A StopGo,-7%,u,-14%,7%,u,-12%,u,-26%
RE007 growth inh,2%,-13%,-15%,2%,8%,-1%,-2%,-1%
Cruzain inh Det,x,x,-2.8%,4.4%,x,-0.7%,-4.1%,8.6%
Lassa entry inh,x,-8%,-5%,13%,x,5%,x,-22%
SARS PLpro yeast,u,0%,-3%,-2%,23%,-5%,-4%,3%

17) Cc1nc(/C(N)=N/OC(=O)Cc2ccccc2)no1
18) COc1ccc2cc(C(=O)Nc3ccc(S(N)(=O)=O)cc3)sc(=O)c2c1OC
19) Cc1ccc(-c2n[nH]c(=O)c3ccccc23)c(C)c1
20) COc1ccc(S(=O)(=O)N2CCOCC2)cc1C(=O)N1CCCCC1
21) Cc1ccc(-n2ccnc2SCC(=O)N(CC(C)C)C2CCS(=O)(=O)C2)c(C)c1 (stereo not drawn)
22) O=C(c1ccc(Br)cc1)c1sc(N2CCOCC2)nc1-c1ccccc1
23) O=C(NCCCNCCCNC(=O)c1ccc(/C=N/O)nc1)c1ccc(/C=N/O)nc1
24) O=C(CNC(=O)c1ccc2c(c1)OCCO2)N/N=C/c1cccc(Br)c1
entry no.,17,18,19,20,21,22,23,24
Cruzain inh noDet,x,x,x,x,28%,x,x,x
MARV entry inh,21%,u,-18%,19%,-12%,u,x,-21%[46.1 µM]
NS1 function inh,x,7%,-22%,14%,-6%,6%,8%,x
2A StopGo,2%,-19%,u,-16%,-20%,u,-15%,7%
RE007 growth inh,-6%,39%,15%,-10%,-3%,-6%,8%,-2%
Cruzain inh Det,x,x,x,x,2.7%,x,x,x
Lassa entry inh,17%[46.1 µM],-18%,-23%,1%,-9%,u,x,x
SARS PLpro yeast,0%,5%,-9%,u,3%,-1%,1%,2%

25) Cc1cc2c(cc1S(=O)(=O)N1CCN(c3ccccc3)CC1)OCC(=O)N2
26) COc1ccc(-c2nc3scc(CCNS(=O)(=O)c4ccc(Oc5ccccc5)cc4)n3n2)cc1OC
27) CCCCOc1cccc(C2c3c(-c4cc(C)ccc4O)n[nH]c3C(=O)N2CCOC)c1 (stereo not drawn)
28) Cn1c(=O)c(C(=S)NC(=O)C2CC2)c(N)n(Cc2ccccc2)c1=O
29) Cc1c(C(=O)O)sc2nc(SCC(=O)Nc3ccc(S(=O)(=O)NC(C)(C)C)cc3)[nH]c(=O)c12
30) Cc1ccc(CNC(=O)CCCNS(=O)(=O)c2cccc3nonc23)cc1
31) Cc1ccc(N=C2NC(=O)/C(=C\c3ccc(C)s3)S2)cc1
32) CCCn1c(=O)sc2cc(NC(=O)c3ccccc3Cl)ccc21
entry no.,25,26,27,28,29,30,31,32
Cruzain inh noDet,x,-18%,10%,-20%,x,7%,x,-5%
MARV entry inh,x,x,u,-2%,12%[46.1 µM],-26%,u,u
NS1 function inh,6%,x,x,16%,x,1%,4%,x
2A StopGo,-17%,11%,-23%,x,-9%,1%,8%,-15%
RE007 growth inh,-1%,x,x,x,8%,12%,-6%,x
Cruzain inh Det,x,1.1%,-17%,-1.2%,x,-3.5%,x,-7.3%
Lassa entry inh,x,u,x,x,3%,u,u,-7%[46.1 µM]
SARS PLpro yeast,-5%,x,x,1%,2%,13%,0%,x

Structures from the list above that have bromine:
10) CCN(CC(=O)NC(C)(C)C)Cc1nc2c(Br)cc(Br)cc2c(=O)[nH]1
22) O=C(c1ccc(Br)cc1)c1sc(N2CCOCC2)nc1-c1ccccc1
24) O=C(CNC(=O)c1ccc2c(c1)OCCO2)N/N=C/c1cccc(Br)c1
entry no.,10,22,24
Cruzain inh noDet,x,x,x
MARV entry inh,u,u,-21%[46.1 µM]
NS1 function inh,-2%,6%,x
2A StopGo,u,u,7%
RE007 growth inh,-13%,-6%,-2%
Cruzain inh Det,x,x,x
Lassa entry inh,-8%,u,x
SARS PLpro yeast,0%,-1%,2%

Next part.
33) O=S(=O)(Nc1cccnc1)c1ccc(Cl)c(C(F)(F)F)c1
34) O=C(Nc1ccc(OC(F)(F)F)cc1)c1cnccn1
35) CC(C)CCNC1=CC(=O)CC(c2ccccc2)C1 (stereo not drawn)
36) CCc1nc(Nc2ccc(NC(C)=O)cc2)c2oc3ccccc3c2n1
37) Cn1cnc([N+](=O)[O-])c1N=C(N)N
38) CCOc1ccc(NC2CCCCC2NS(=O)(=O)c2ccccc2)cc1 (stereo not drawn)
39) NC(=O)CN1C(=O)C(=O)N(Cc2cccc(Cl)c2)C1=O
40) Cc1ccc(-n2[nH]c(C)c(C=Nc3ccc4[nH]c(=O)[nH]c4c3)c2=O)cc1
entry no.,33,34,35,36,37,38,39,40
Cruzain inh noDet,2%,x,-20%,x,x,x,x,22%
MARV entry inh,-4%,u,u,x,2%[46.1 µM],x,x,u
NS1 function inh,-9%,-3%,16%,-4%,-3%,-14%,-1%,5%
2A StopGo,2%,51%[activator],-27%,u,-2%,-9%,-15%,32µM*
RE007 growth inh,7%,2%,-25%,-6%,5%,-10%,8%,-12%
Cruzain inh Det,0.8%,x,-2.0%,x,x,x,x,-7.5%
Lassa entry inh,14%,-26%,u,x,2%,x,x,u
SARS PLpro yeast,x,1%,-10%,12%,8%,23%,2%,-11%

41) COc1cc(OC)c(NC(=O)N2CCc3c([nH]c4ccccc34)C2c2ccccc2F)cc1Cl (stereo not drawn)
42) Cc1nn(C(C)C(=O)NCCc2ccccc2)c(=O)c2cc3occc3n12 (stereo not drawn)
43) CC(C)(C)c1ccc(OCc2ccc(C(=O)N/N=C3\CC4CC=CC34)cc2)cc1 (stereo not drawn)
44) COC(=O)c1cn(CC(=O)NC2CCCCCC2)c2ccccc12
45) COc1ccc(NC(=O)c2cc(C3CC3)nc3c2c(C)nn3-c2ccccc2)cc1OC
46) C=CCNC(=O)c1cccc(C(F)(F)F)c1
47) Cc1nn(C)cc1C(C(=O)NC1CCCCC1)N(C(=O)c1cnccn1)c1ccc(Oc2ccccc2)cc1 (stereo not drawn)
48) COc1ccc(Nc2nc(N)c3cc(OC)c(OC)cc3n2)cc1
entry no.,41,42,43,44,45,46,47,48
Cruzain inh noDet,16µM*,x,-1%,u,-11%,2%,u,1%
MARV entry inh,x,x,0%,18%,x,7%,23%,11µM*
NS1 function inh,x,8%,12%,-4%,x,5%,-13%,x
2A StopGo,-18%,-6%,11%,-28%,-19%,-15%,4%,-1%
RE007 growth inh,x,7%,3%,0%,x,3%,24%,x
Cruzain inh Det,-3.5%,x,-10%,-0.5%,-0.6%,6.9%,-3.9%,9.2%
Lassa entry inh,u,x,-19%,26%,-2%[46.1 µM],u,u,19%[46.1 µM]
SARS PLpro yeast,x,7%,-7%,-9%,x,-7%,9%,x
